Screening data (PubChem BioAssay)
Tg IFNy HTS: T. gondii growth inhibition with IFN-gamma, primary screen, cell-based | Toxoplasma gondii growth in IFN-gamma-treated host cells; hits give low values; reference of the scale not given here | AID 1259416, 2018 | 69,000 compounds, 3.8% hits | activity change, negative = inhibition, %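 (about 20 µM by stock and volumes)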;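 active means below -70%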;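 further: host cells are HeLa cells infected with Toxoplasma gondii; parasite growth read as luciferase light; one replicate is shown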
The depositor's hits bear a star; & = joins results of further samples. Only part of the results is shown; the hit share may differ from the screen's.

Screening Cc1ccc(CN2CCc3ncnc(C4CC4)c3CC2)o1 returned Tg IFNy HTS 210.
Screening CC(C)NC(=O)Nc1ccc2c(c1)C(=O)N([C@H](C)CO)C[C@H](C)[C@@H](CN(C)C(=O)C1CCCCC1)OCCCC[C@@H](C)O2 returned Tg IFNy HTS 153.
CCOc1ccc(CNS(=O)(=O)c2ccc3[nH]c(=O)ccc3c2)cc1 was read as Tg IFNy HTS 34.
For Cc1cnccc1-c1cn(C)nc1-c1cccc(CNC(=O)Cc2cccnc2)c1 the results were Tg IFNy HTS -19.
For CC(C)=CCc1c2c(c3occ(-c4ccc(O)c(O)c4)c(=O)c3c1O)C=CC(C)(C)O2 the results were Tg IFNy HTS -25.
COc1ccc(CCN2C(=O)O[C@@H]3CN(CC(=O)O)C[C@@H]32)cc1 was read as Tg IFNy HTS 4.
`Cc1ccsc1CN(C)Cc1ccc2cccc(O)c2n1` gave Tg IFNy HTS 82.
For CCCC(=O)Nc1ccc2c(c1)OC[C@H](C)N(C(=O)c1cccnc1)C[C@H](C)[C@@H](OC)CN(C)C2=O the results were Tg IFNy HTS 113.
CCN(CCN1CCCC1)C(=O)c1cccc(-c2ccc(O)cc2)c1 was read as Tg IFNy HTS -10.
CCCC(=O)N1CC2(C1)CN(CC1CC1)[C@@H](CO)c1[nH]c3cc(OC)ccc3c12 was read as Tg IFNy HTS 51.
`CC(CCc1ccc(F)cc1)NC(=O)c1cc(C(C)(C)C)oc1CN1CCOCC1` (stereo not drawn) gave Tg IFNy HTS -1.
`Cc1ccccc1-c1noc(-c2c(O)c3ccc(F)cc3[nH]c2=O)n1` gave Tg IFNy HTS -7.
Screening CSCCC(C)NCc1noc(-c2c(F)cccc2F)n1 (stereo not drawn) returned Tg IFNy HTS 8.
Screening CC(C)Cc1cc(C(=O)Nc2ccc3c(c2)nc(C(C)C)n3C)n(C)n1 returned Tg IFNy HTS -60.
Cn1ncc2c(N3CCCN(C(=O)c4ccco4)CC3)nc(C(C)(C)C)nc21 was read as Tg IFNy HTS -16.
For CCOC(=O)c1noc2nc(C)n(Cc3nc(-c4cccc(OC)c4OC)oc3C)c(=O)c12 the results were Tg IFNy HTS 7.
S=C1N(CN2CCCCC2)CCN1CN1CCCCC1 was read as Tg IFNy HTS 18.
Screening O=C(Nc1ccccc1)[C@@H]1CCS(=O)(=O)[C@H]2CN(Cc3ccc(F)cc3)C[C@@H]12 returned Tg IFNy HTS -6.
Screening NC(=O)c1cccc(CC2CCN(C(=O)NCCc3ccccc3F)C2)c1 (stereo not drawn) returned Tg IFNy HTS 93.
CCS(=O)(=O)N1CCO[C@H]2[C@@H](OCc3ccccn3)CC[C@H]21 was read as Tg IFNy HTS 6.
`CNC[C@H]1Oc2c(N)cccc2C(=O)N([C@H](C)CO)C[C@@H]1C` gave Tg IFNy HTS 4.
Screening Cc1cccnc1CN1CCN(Cc2cccc(OC3CCCC3)c2)CC1 returned Tg IFNy HTS -8.
For CS(=O)(=O)N1CCC2(CC1)COCCN(c1ncccn1)C2 the results were Tg IFNy HTS 3.
Screening O=C(NC[C@@H]1[C@@H](c2ccccc2)[C@H](CO)N1C(=O)C1CCC1)NC1CCCC1 returned Tg IFNy HTS -9.
Cc1ccccc1NC(=O)C(=O)NCCc1csc(-c2ccc(F)cc2)n1 was read as Tg IFNy HTS -39.
For Cc1ccc(-c2c(F)cccc2OC(C)C)nn1 the results were Tg IFNy HTS 1.
For CC(C)(C)CC(=O)N1CCC2(CCC(CN)OC2)CC1 (stereo not drawn) the results were Tg IFNy HTS -13.
CC(C)c1nnc(NC(=O)CSCC(=O)Nc2cccc3ccccc23)s1 was read as Tg IFNy HTS 34.
`COCc1cnc2n1CCN(C(=O)COc1ccccc1)C2C` (stereo not drawn) gave Tg IFNy HTS -18.
`CCOC(=O)c1nn(CCc2ccc(OC)cc2)c2c1CN(C(=O)c1cn3cc(C)ccc3n1)CC2` gave Tg IFNy HTS -25.
Screening CCNC(=O)C1CCN(Cc2cc3cc(OC)c(OC)cc3[nH]c2=O)C1 (stereo not drawn) returned Tg IFNy HTS 5.
Screening O=C(NCC[C@H]1CC[C@H](NS(=O)(=O)Cc2ccccc2)[C@H](CO)O1)C1CCCCC1 returned Tg IFNy HTS -17.
For CC(=O)c1cc(-c2cccc3cccnc23)ccc1O the results were Tg IFNy HTS -28.
O=C(NCCc1csc(-c2ccccc2)n1)[C@H]1CCCN1C(=O)c1ccccc1Br was read as Tg IFNy HTS 10.
For Cc1noc(C)c1NC(=O)Nc1ccc2c(c1)C(=O)N([C@@H](C)CO)C[C@H](C)[C@H](CN(C)S(=O)(=O)c1cccs1)OCCCC[C@@H](C)O2 the results were Tg IFNy HTS 328.
Screening CCC(c1ccnn1C)N1Cc2ncccc2C1=O (stereo not drawn) returned Tg IFNy HTS 7.
`COCCN1CCC2C(CC(Cn3cccn3)N2C(C)=O)C1` (stereo not drawn) gave Tg IFNy HTS 39.
For CN1CCN2CCN(C(=O)c3ncoc3C3CC3)CC2C1=O (stereo not drawn) the results were Tg IFNy HTS 5.
Screening Cc1sc(-n2cccc2)c(C(=O)N2CCn3c(C(N)=O)cnc3C2)c1C returned Tg IFNy HTS 0.
CN1c2ncccc2C(=O)NC12CCN(C(=O)c1n[nH]c3c1CCC3)CC2 was read as Tg IFNy HTS 93.
Screening Cc1oc(C2CCN(S(=O)(=O)Cc3ccccc3)CC2)nc1C(=O)N1CCCC1 returned Tg IFNy HTS 4.
For Cc1cccc(NC(=O)CCSc2nnc(-c3ccoc3C)o2)c1 the results were Tg IFNy HTS -46.
`O=C(Cc1cccnc1)N1CC(=O)N2[C@H](CO)[C@@H](c3ccc(C4=CCCCC4)cc3)[C@H]2C1` gave Tg IFNy HTS -50.
Screening N#CC1(C(=O)O)CN(CCc2ccc(Cl)cc2)CN(CCc2ccc(Cl)cc2)C1 returned Tg IFNy HTS -6.
Screening O=C(NCCCCCCNC(=O)ON=C1CCCCC1)ON=C1CCCCC1 returned Tg IFNy HTS -31&-17.
Cc1ccc(-c2nnn(CC(=O)N(CC(=O)NC(C)(C)C)c3ccc(C(C)C)cc3)n2)o1 was read as Tg IFNy HTS -40.
`CCSc1nc(CC(=O)NCc2ccc(C(F)(F)F)nc2)cs1` gave Tg IFNy HTS -13.
For Cc1ccc(C2(O)CCN(C(=O)c3cccc4c3NCCC4)CC2)nc1 the results were Tg IFNy HTS 4.
For CC(=O)N1C[C@@H]2CN(c3ncccn3)CC[C@H]2C1 the results were Tg IFNy HTS 82.
Cn1cc(CN2CC[C@@H]3[C@H]2CCN3Cc2ccsc2)cn1 was read as Tg IFNy HTS -17.
COc1cccc(CC2CC(=O)N(c3ccc4c(C)cc(=O)oc4c3)C2=O)c1 (stereo not drawn) was read as Tg IFNy HTS 5&5.
`O=S(=O)(c1ccc(F)cc1)N1CCCCN2[C@H](CO)[C@H](c3ccc(-c4cncnc4)cc3)[C@H]2C1` gave Tg IFNy HTS 20.
For CCc1cc(=O)oc2cc(OC(C)C(=O)N3CCCn4cncc4C3)ccc12 (stereo not drawn) the results were Tg IFNy HTS 8.
Cc1ccc(C2(O)CCN(C(=O)c3ncccc3O)CC2)nc1 was read as Tg IFNy HTS 3.
Cc1nccn1CC1(O)CCN(C(=O)CN2CCC(c3ccccc3)CC2)CC1 was read as Tg IFNy HTS 40.
CCCCCCCCCCOC1CCS(=O)(=O)C1 (stereo not drawn) was read as Tg IFNy HTS -84*.
Screening CCOC(=O)c1ccc(NC(=S)N2CCN(Cc3ccc4c(c3)OCO4)CC2)cc1 returned Tg IFNy HTS 14.
`CC(C)CN(Cc1cnn(C)c1)C(=O)CC1NC(=O)c2ccccc21` (stereo not drawn) gave Tg IFNy HTS 8.
For COc1ccc(C(=O)NCCc2csc(-c3cccc(F)c3)n2)cc1OC the results were Tg IFNy HTS 32.
`CCC(=O)NCc1ccccc1-c1ccc(OC)cc1C` gave Tg IFNy HTS 28.

Three compounds from above, sorted by molar mass, largest number first.
Screening NC(=O)c1cccc(CC2CCN(C(=O)NCCc3ccccc3F)C2)c1 (stereo not drawn) returned Tg IFNy HTS 93.
`CC(C)CN(Cc1cnn(C)c1)C(=O)CC1NC(=O)c2ccccc21` (stereo not drawn) gave Tg IFNy HTS 8.
CCCCCCCCCCOC1CCS(=O)(=O)C1 (stereo not drawn) was read as Tg IFNy HTS -84*.

Following part
Screening CC(C)N(C[C@H]1[C@@H](c2ccccc2)[C@H](CO)N1S(C)(=O)=O)C(=O)CN(C)C returned Tg IFNy HTS 3.
`N#Cc1nc(-c2ccc(C(F)(F)F)cc2)oc1N` gave Tg IFNy HTS -96*.
Screening Cc1cc(C)nc(SCc2nnc(SCC(=O)OC3CCCCC3)o2)n1 returned Tg IFNy HTS 6.
COC(=O)N[C@H](C(=O)N1CCC[C@H]1c1ncc(-c2ccc(-c3ccc(-c4cnc([C@@H]5CCCN5C(=O)[C@@H](NC(=O)OC)C(C)C)[nH]4)cc3)cc2)[nH]1)C(C)C was read as Tg IFNy HTS -26.
Screening COc1cccc(NC(=O)Nc2ccc3c(c2)C(=O)N(C)C[C@H](OC)[C@H](C)CN[C@@H](C)CO3)c1 returned Tg IFNy HTS 19.
Screening CC(C)Cc1cc(CNc2ncnc3sc4c(c23)CCNC4)no1 returned Tg IFNy HTS 7.
For O=C(CC(C(=O)c1ccccc1)c1cccs1)c1ccc(Cl)cc1 (stereo not drawn) the results were Tg IFNy HTS -10.
Screening Oc1cc(-c2cccc3c2Sc2ccccc2S3)cc2c1OCCNC2 returned Tg IFNy HTS -48.
Screening CC(C)Cc1cc(C(=O)N2CCOC(C(F)(F)F)C2)n(C)n1 (stereo not drawn) returned Tg IFNy HTS -7.
Screening CC1COC2(CCN(C(=O)c3cccn3C)CC2)C1 (stereo not drawn) returned Tg IFNy HTS 57.
Screening CCOC(=O)CC1COCCN1C(=O)Cc1cnc2c(C)cccn12 (stereo not drawn) returned Tg IFNy HTS -8.
For CCc1nc(-c2c(-c3ccccc3)ncn2CCSc2cn[nH]n2)c(C)[nH]1 the results were Tg IFNy HTS 2.
For CCn1ncnc1C(C)NC(=O)c1cc(-n2cccn2)ccc1Cl (stereo not drawn) the results were Tg IFNy HTS 106.
For O=c1[nH]c2ccc(Cl)cc2c(O)c1-c1nc(-c2cccs2)no1 the results were Tg IFNy HTS -21.
COc1ccccc1-c1nnc(N)s1 was read as Tg IFNy HTS -2.
Screening CC(NC(=O)C1=NNC(=O)CC1)c1ccccc1-n1cccn1 (stereo not drawn) returned Tg IFNy HTS 47.
Screening CC(=O)c1c(O)c(C)c(O)c2c1OC1=CC(=O)C(C(C)=O)C(=O)C12C (stereo not drawn) returned Tg IFNy HTS 6.
For CCOC(=O)c1ccc(OC(=O)c2ccc(Cl)cc2Cl)cc1 the results were Tg IFNy HTS 32.
For COc1ccc2oc(C)c(C(=O)NCCc3nc4ccccc4n3C)c2c1 the results were Tg IFNy HTS -12.
CC(=O)N1CC(=O)N(c2ccccc2)CC12CCN(C(=O)c1cccnc1)C2 (stereo not drawn) was read as Tg IFNy HTS 8.
For O=C(NCC1CC1)[C@H]1CC[C@H]2[C@H](CCN2Cc2ccccc2F)O1 the results were Tg IFNy HTS 38.
`CC1(C(=O)O)CC(N2CCOCC2)CCN1C(=O)c1cccnc1` (stereo not drawn) gave Tg IFNy HTS -11.
For Nc1[nH]nc2nc(C3CCNC3)ccc12 (stereo not drawn) the results were Tg IFNy HTS -25.
O=C(c1cccs1)N1CCc2c([nH]c3ccccc23)C1c1cccnc1 (stereo not drawn) was read as Tg IFNy HTS 10.
`COC(=O)C1CCN(C(=O)c2cc3cccnc3n(Cc3ccccc3)c2=O)CC1` gave Tg IFNy HTS 5.
`CCn1c(SCc2nc(-c3ccccc3)oc2C)nc2c(=O)[nH]cnc21` gave Tg IFNy HTS -8.
CN(C)CC1COC2(COCCN(C(=O)N(C)C)C2)C1 (stereo not drawn) was read as Tg IFNy HTS -1.
For CCN1CCN(C2=NC3(CCCCC3)C(C#N)C(=O)N2)CC1 (stereo not drawn) the results were Tg IFNy HTS -12.
For CCn1cnnc1CCNC(=O)c1cccc(CC2CCNCC2)c1 the results were Tg IFNy HTS 17.
CCN(C(=O)c1cn[nH]c1C1CCNC1)c1ccccc1 (stereo not drawn) was read as Tg IFNy HTS 2.
For CCc1ocnc1C(=O)Nc1ccccc1SCc1ccccc1F the results were Tg IFNy HTS -8.
Screening COc1ccc(C=C2CCC(=O)CC2)cc1 returned Tg IFNy HTS 81.
`CNC(=O)c1cc(=O)n(CC(=O)Nc2ccc(C)cc2)c2ccccc12` gave Tg IFNy HTS 4.
For COc1cc(CN2CC3ON=C(c4ccccc4F)C3C2)cc(OC)c1OC (stereo not drawn) the results were Tg IFNy HTS -4.
C=CCNc1ccccc1C(=O)N1CCn2nc(C(=O)N3CCCC3)cc2C1 was read as Tg IFNy HTS 34.

Molecules above that have a furan ring, fused or not (six):
Screening Cc1ccc(CN2CCc3ncnc(C4CC4)c3CC2)o1 returned Tg IFNy HTS 210.
`CC(CCc1ccc(F)cc1)NC(=O)c1cc(C(C)(C)C)oc1CN1CCOCC1` (stereo not drawn) gave Tg IFNy HTS -1.
Cn1ncc2c(N3CCCN(C(=O)c4ccco4)CC3)nc(C(C)(C)C)nc21 was read as Tg IFNy HTS -16.
For Cc1cccc(NC(=O)CCSc2nnc(-c3ccoc3C)o2)c1 the results were Tg IFNy HTS -46.
Cc1ccc(-c2nnn(CC(=O)N(CC(=O)NC(C)(C)C)c3ccc(C(C)C)cc3)n2)o1 was read as Tg IFNy HTS -40.
For COc1ccc2oc(C)c(C(=O)NCCc3nc4ccccc4n3C)c2c1 the results were Tg IFNy HTS -12.

In the list so far, 3 contain a COOH group.
COc1ccc(CCN2C(=O)O[C@@H]3CN(CC(=O)O)C[C@@H]32)cc1 was read as Tg IFNy HTS 4.
Screening N#CC1(C(=O)O)CN(CCc2ccc(Cl)cc2)CN(CCc2ccc(Cl)cc2)C1 returned Tg IFNy HTS -6.
`CC1(C(=O)O)CC(N2CCOCC2)CCN1C(=O)c1cccnc1` (stereo not drawn) gave Tg IFNy HTS -11.
